Screening data: PubChem, Johns Hopkins Ion Channel Center
KCNQ2 block: KCNQ2 potassium channel inhibitors, primary screen, cell-based, CHO-K1, FluxOR thallium flux, B-score (AID 2156). Potassium voltage-gated channel subfamily KQT member 2 (Rattus norvegicus), O88943. 20 min; hits give low values; only compounds with negative scores are shown here; some inactives read as strong as hits. B-score at 10 µM. 310,000 compounds, 1.1% hits;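 active = fluorescence ratio B-score at most minus 3 library SDs, with starting brightness B-score within 2 library SDs, cut at about -5.5 in these data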
Target sequence (O88943 whole entry, looked up): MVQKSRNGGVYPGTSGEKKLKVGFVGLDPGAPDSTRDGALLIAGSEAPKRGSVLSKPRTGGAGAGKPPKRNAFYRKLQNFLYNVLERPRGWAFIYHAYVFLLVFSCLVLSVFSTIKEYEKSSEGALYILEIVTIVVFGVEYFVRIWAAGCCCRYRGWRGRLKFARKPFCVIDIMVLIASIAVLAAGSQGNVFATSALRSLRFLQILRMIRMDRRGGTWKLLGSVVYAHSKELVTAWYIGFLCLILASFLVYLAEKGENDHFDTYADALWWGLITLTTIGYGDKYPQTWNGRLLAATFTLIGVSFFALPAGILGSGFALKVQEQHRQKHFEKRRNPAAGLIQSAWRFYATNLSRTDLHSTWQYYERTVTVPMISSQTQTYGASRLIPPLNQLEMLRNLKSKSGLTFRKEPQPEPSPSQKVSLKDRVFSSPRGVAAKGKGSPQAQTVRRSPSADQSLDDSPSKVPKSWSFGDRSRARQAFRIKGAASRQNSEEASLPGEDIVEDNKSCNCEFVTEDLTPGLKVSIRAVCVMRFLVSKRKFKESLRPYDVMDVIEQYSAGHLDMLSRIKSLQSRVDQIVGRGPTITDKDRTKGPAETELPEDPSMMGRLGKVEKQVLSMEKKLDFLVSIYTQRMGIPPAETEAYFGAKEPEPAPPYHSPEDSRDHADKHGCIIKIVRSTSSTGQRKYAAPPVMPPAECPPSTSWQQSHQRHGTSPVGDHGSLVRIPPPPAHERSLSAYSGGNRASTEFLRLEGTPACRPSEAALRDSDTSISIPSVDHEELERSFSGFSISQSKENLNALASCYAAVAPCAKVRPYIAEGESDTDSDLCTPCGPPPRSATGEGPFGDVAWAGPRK
KCNQ2 block baseline: recorded beside KCNQ2 block, whose call it bears; B-score; measured here: initial fluorescence intensity artifact check;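 brightness before thallium and not channel activity; 0 = typical well and far values either way flag optical interference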
An asterisk follows results filed as active; i = inactive. A portion of the library. The share of hits here may be higher or lower than overall.

cpd | molecule | KCNQ2 block | KCNQ2 block baseline
1 | C[C@H](NC(=O)[C@@H]1CSC2c3ccccc3C(=O)N21)C(=O)NCc1c(F)cccc1Cl (stereo not given in full) | i | 1.1
2 | CCN(CC)c1ccc(/C=N/N2CCN(Cc3cccc4ccccc34)CC2)c(O)c1 | i | -0.39
3 | O=C(COC(=O)c1ccc(F)cc1F)NC1CC1 | i | -0.14
4 | O=C(O)[C@H]1CCCC[C@H]1C(=O)Nc1ccc(S(=O)(=O)N2CCOCC2)cc1 | i | 1
5 | Cc1cccn2c(=O)c(/C=C(\C#N)C(=O)NC3CCS(=O)(=O)C3)c(Oc3ccccc3Cl)nc12 (stereo not given) | i | 1.1
6 | COC(=O)c1cc(S(=O)(=O)NCC2CCN(Cc3ccc(Cl)cc3)CC2)c[nH]1 | i | 1.5
7 | COC(=O)c1ccccc1OC(=O)c1ccc(Br)o1 | i | 1.6
8 | O=C1CCCc2nc3c(cc21)C(O)Oc1c-3ccc2ccccc12 (stereo not given) | i | 2.6
9 | COCc1cc(NCc2ccc(Cl)cc2)nc(C)n1 | i | -0.79
10 | C/C(Cc1ccccc1)=N\NC(=O)CCCCCC(=O)N/N=C(\C)Cc1ccccc1 | i | -0.48
11 | O=C(COC(=O)c1ccccn1)NC12CC3CC(CC(C3)C1)C2 | i | 2
12 | O=C(CNS(=O)(=O)c1ccccc1)OCC(=O)c1ccc(OC(=O)c2ccccc2)cc1 | i | 0.45
13 | COc1ccc(Cn2cnc3c([N+](=O)[O-])c(C)c(C)cc32)cc1 | i | 0.01
14 | Cc1ccc(C(=O)N/N=C\c2ccc3c(c2)OCO3)cn1 | i | -1.1
15 | COc1ccc(CN2C(=O)c3cccnc3C2=O)cc1S(=O)(=O)N1CCOc2ccc(C)cc21 | i | -0.85
16 | CCN(CC)C(=O)CSc1nc(O)cc(=O)n1-c1ccccc1OC | i | 0.01
17 | CCOC(=O)N1CCN(C(=O)C(NS(=O)(=O)c2cccc3nsnc23)c2ccccc2)CC1 (stereo not given) | i | -0.11
18 | CC(=O)OC(C(=O)NCc1ccco1)c1cccnc1 (stereo not given) | i | -0.04
19 | COc1ccccc1N1CCN(CCCCCCOc2ccc(F)cc2)CC1 | i | 1.2
20 | CC(C)Oc1ccc(CN2CCCC(CO)(Cc3ccc(F)cc3)C2)cc1 (stereo not given) | i | 0.01
21 | Cc1cc(C)nc(SCC(N)=O)n1 | i | 0.28
22 | CN1CCN(C(=O)c2ccccc2NC(=O)c2ccc(C(C)(C)C)cc2)CC1 | i | 0.35
23 | CC1(C)CC(=O)c2cnc(NC3CC3)nc2C1 | i | 0.66
24 | CC1(C)CC(=O)N(c2cccc(Cl)c2)C(=O)C1 | i | 0.28
25 | O=C(NCCCN1CCOCC1)c1ccccc1NS(=O)(=O)c1ccc(Br)cc1 | i | 1.7
26 | C=CCOC(=O)C1=C(C)NC(C)=C(C(=O)OCC=C)C1c1ccc(C)o1 | i | 1.2
27 | O=C(CN1C(=O)c2ccccc2S1(=O)=O)N1CCN(c2cccc(Cl)c2)CC1 | i | -0.12
28 | Cc1cc(=O)n2nc(N3CCCC(C(=O)NCCC4=CCCCC4)C3)sc2n1 (stereo not given) | i | -0.48
29 | Cn1ncc(C#N)c1/N=C/N(Cc1ccccc1)Cc1ccccc1 | -5.7* | -0.88*
30 | N#CCCn1cc(/C=C(\C#N)c2nc3ccccc3s2)c(-c2ccc(F)cc2)n1 | i | 2.3
31 | CC(C)(C)c1ccc(OCCCC(=O)NNC(=O)c2ccccc2O)cc1 | i | 0.41
32 | O=S1(=O)CCOC[C@H](CC2CCCCC2)N1Cc1ccc(Cl)cc1 | i | -0.68
33 | COc1ccc(CCC(=O)N2CCCC(Nc3ccc(C)c(C)c3)C2)cc1OC (stereo not given) | i | 0.19
34 | C=CCSc1ccsc1C(=O)O | i | 0.24
35 | O=C(Nc1nnc(C2CC2)s1)c1cccc(S(=O)(=O)N2CCc3ccccc32)c1 | i | 1.9
36 | COc1cc(NC(=O)c2ccc(Br)cc2)ccc1NC(=O)c1cc2ccccc2o1 | i | 1.2
37 | Brc1ccc(CSc2nnc(-c3ccccn3)n2Cc2ccco2)cc1 | i | -1.6
38 | O=C(c1ccc(S(=O)(=O)Nc2ccccc2F)cc1)N1CCN(c2ccccc2O)CC1 | i | -0.48
39 | CN(C)CCNC(=O)CN1C(=O)COc2ccc(C(C)(C)C)cc21 | i | -0.3
40 | O=C(NCc1csc(-c2ccccc2)n1)c1ccco1 | i | 1
41 | CC(C)CNC(=S)NC(=O)c1ccccc1Cl | i | 0.97
42 | CCOC(=O)C1CCN(C(=O)c2c(-c3ccccc3)noc2C)CC1 | i | 0.01
43 | Cc1cccc(CN2CCC(CNC(=O)Cn3ncc4c([nH]c5ccccc54)c3=O)CC2)c1 | i | 3.5
44 | O=C(COc1ccccc1)NNc1nc2c(F)cc(F)cc2s1 | i | -1.1
45 | O=C(NCc1nc2ccccc2[nH]1)c1c(F)c(F)c(F)c(F)c1F | i | -1.8
46 | COc1ccc(CNC(=O)Cn2cc([N+](=O)[O-])nc2C)cc1 | i | 0.04
47 | CSc1nc(NCC(C)O)c2c3c(sc2n1)CN(C)CC3 (stereo not given) | i | 1.4
48 | COc1ccc(C(=O)NCc2ccc3[nH]c(C)cc3c2)cc1OC | i | 1.6
49 | O=C(CSc1n[nH]c(-c2ccccc2)n1)Nc1ccc(Br)cn1 | i | 0.78
50 | CN(C)C(=O)[C@@H]1C[C@H]1[C@@H](NC(=O)OCc1ccccc1)c1ccccc1 | i | 1.6

Next section
cpd | molecule | KCNQ2 block | KCNQ2 block baseline
51 | COc1ccccc1CCNC(=O)c1ccc(OC)c(OC2CCN(C(C)C)CC2)c1 | i | 0.01
52 | Cn1c(SCC(=O)Nc2ccc3nc(SCC(=O)N4CCCC4)sc3c2)nnc1-c1ccccc1 | i | -0.12
53 | N#CC1=C(S)N=C(N)C(c2nc(-c3ccccc3)cs2)C12CCCCC2 (stereo not given) | i | 1
54 | CN1CCN(C(=S)Nc2ccc(Cl)cc2)CC1 | i | 4.2
55 | Cn1c(=O)c2c(nc(Sc3n[nH]c(N)n3)n2Cc2ccccc2Cl)n(C)c1=O | i | 3
56 | CCOC(=O)C1(CC2CCCCO2)CCN(C(=O)Nc2cccc(SC)c2)CC1 (stereo not given) | i | -0.17
57 | Cc1ccc(C(=O)N2CCN(c3ncccn3)CC2)cc1S(=O)(=O)N1CCCCC1 | i | 1.2
58 | NNc1nc(-c2ccccc2)cs1 | i | -1.1
59 | Cc1ccc(N2CCN(C(=O)c3cc(-c4ccc(F)cc4)[nH]c3C)CC2C)cc1 (stereo not given) | i | -0.16
60 | O=C1CSCC(=O)N1c1ncc(C(F)(F)F)cc1Cl | i | 0.54
61 | O=C(Cc1ccccc1)Nc1ccccc1C(=O)Nc1ccc(C(=O)O)cc1 | i | -0.84
62 | CCCc1nnc(NC(=O)c2cc3ccccc3o2)s1 | i | 0.01
63 | O=C(NCCc1cccc(F)c1)C1CCCN(c2nc3ccccc3s2)C1 (stereo not given) | i | 0.4
64 | Cc1ncc([N+](=O)[O-])n1CC(C)O (stereo not given) | i | 1.4
65 | CCN(CC)S(=O)(=O)c1ccc(N2CCOCC2)c(NC(=O)c2ccccc2)c1 | i | 0.81
66 | Cc1cc(-c2ccc(C)c(S(=O)(=O)NCC3CCN(Cc4ccccc4F)CC3)c2)on1 | i | 2.3
67 | O=C(O)/C(=C\c1ccc(Br)cc1)NC(=O)c1cccs1 | i | 0.86
68 | O=C(CCC(=O)c1ccc(-c2ccccc2)cc1)Nc1cccnc1 | i | 1.6
69 | COc1ccc2ccccc2c1/C=N/NC(=O)c1cccc(Br)c1 | i | 1.5
70 | Cc1ccccc1NC(=O)N1C2CCC1CC(O)(c1cccnc1)C2 (stereo not given) | i | 2.9
71 | Cc1nn(-c2ccccc2)c(CC(C)(C)C(=O)O)c1C(=O)O | i | 0.95
72 | COc1ccccc1CC(NC(C)=O)C(=O)NC1CCN(C(=O)c2cccc(Cl)c2)CC1 (stereo not given) | i | -0.78
73 | CC(=O)Nc1ccc(Oc2ncccn2)cc1 | i | -0.49
74 | CN(C)c1ccc(S(=O)(=O)NCC(=O)NCC2CCCCC2)cc1[N+](=O)[O-] | i | -1.7
75 | Cc1ccc(CNC(=O)CCCc2nc3ccccc3s2)cc1 | i | 1.9
76 | COc1ccc(S(=O)(=O)N(CC(=O)NCc2ccco2)C2CCCCC2)cc1OC | i | -0.41
77 | C(=C\N1CCCCCC1)/c1nnnn1-c1ccc(-c2ccccc2)cc1 | i | 0.28
78 | O=S(=O)(/N=C(/Nc1ccc(F)cc1F)c1ccc(Cl)cc1)c1ccccc1 | i | -0.24
79 | Clc1ccc2nc(CSCc3ccccc3)cn2c1 | i | 0.03
80 | O=C(CSc1nnc(NC(=O)c2ccccc2F)s1)NCC1CCCO1 (stereo not given) | i | -1.5
81 | O=C(NCc1ccco1)/C(=C/c1ccco1)NC(=O)c1ccco1 | i | -0.6
82 | COc1ccc(/C=N/NC(=O)CCn2c3ccccc3c3ccccc32)cc1OC | i | -1.3
83 | CC(C(=O)N1CCc2ccccc21)N1CCc2ccccc2C1 (stereo not given) | i | -0.01
84 | O=C(O)Cc1sc(Nc2cccc3ccccc23)nc1-c1ccc(Cl)cc1 | -8.2* | -0.55*
85 | CC(C)C(=O)NC(=S)Nc1c(Cl)ccc2nsnc12 | i | 1.3
86 | O=C(N/N=C/c1sc(=O)n(-c2ccccc2)c1Cl)c1ccccc1 | i | 0.02
87 | Cc1ccc(S(=O)(=O)CCC(=O)N2CCN(c3ccc(Cl)cc3)CC2)cc1 | i | 0.65
88 | O=C(NCCN1CCOCC1)c1ccc(Cl)c([N+](=O)[O-])c1 | i | 0.49
89 | Cc1cc2cc(CNC(=O)c3cc4ccccc4o3)ccc2n1C | i | -0.31
90 | COC(=O)C1=C(N)OC2=C(C(=O)CC(C)(C)C2)C1c1cc2c(cc1Cl)OCO2 (stereo not given) | i | 0.31
91 | Cc1cc2c([nH]c3ccccc32)c2c1OC(C)(C)C=C2 | i | -1.2
92 | CCOC(=O)c1ccc(CC2SC(N)=NC2=O)cc1 (stereo not given) | i | 1.4
93 | Nc1ccc(Cl)c(S(=O)(=O)Nc2cccc(Cl)c2)c1 | i | 0.65
94 | CN(c1ccccc1)S(=O)(=O)c1ccc(NC(=O)C2CC2)cc1 | i | -0.98
95 | Cc1cnc(C(=O)OC(C(=O)c2c[nH]c3ccccc23)c2ccccc2)cn1 (stereo not given) | i | 1.4
96 | COc1ccc(N(CC(=O)NCCSc2ccccc2)S(C)(=O)=O)cc1 | i | -0.32
97 | Cn1cc(CCC(=O)NCCCc2ccccc2)c2ccccc21 | i | -1.2
98 | COc1ccccc1N1CCN(C(=O)Nc2ccc(F)c(Cl)c2)CC1 | i | 0.94
99 | CCOc1ccc(/C=C2\SC(=S)N(N3C(=O)C4CC4C3=O)C2=O)cc1 (stereo not given) | i | 2.1
100 | CC(C)NC(=O)C(C)Oc1ccc(S(=O)(=O)NCc2ccc3c(c2)OCO3)cc1 (stereo not given) | i | -0.66

Next records:
cpd | molecule | KCNQ2 block | KCNQ2 block baseline
101 | C[N+]1(C2CCC3CCCC2C3O)CCCCC1 (stereo not given) | i | 0.01
102 | Cc1nc2scc(C)n2c(=O)c1S(=O)(=O)NC(C)c1ccccc1 (stereo not given) | i | 0.04
103 | O=C(N/N=C/c1cc2c(cc1Cl)OCO2)c1cccc(Br)c1 | i | -2.3
104 | C=CCNc1nc(N)c([N+](=O)[O-])c(NCc2ccccc2)n1 | i | 0.23
105 | COc1cc(/C=C2\SC(=N)N(c3ccc(F)cc3)C2=O)ccc1O | i | -1.7
106 | O=C(Nc1ccc(F)cc1)N(Cc1cccs1)Cc1cc2cc3c(cc2[nH]c1=O)OCO3 | i | 0.11
107 | NC(=O)c1ccc(NC(=O)CN2CCOCC2)cc1 | i | 0.37
108 | COc1cc(/C=N/NC(=O)c2cccnc2)ccc1OC(=O)c1ccc([N+](=O)[O-])cc1 | i | 0.04
109 | COC(C(=O)N/N=C(\C)c1ccc(O)cc1)c1ccccc1 (stereo not given) | i | 0.94
110 | Cc1ccc(-n2nc(-c3ccccc3)cc2Nc2ccccc2N)cc1 | i | -0.02
111 | CC1=NN(c2cccc(Cl)c2)C(=O)C1 | i | -0.02
112 | Cc1ccc2[nH]c3c(c2c1)CCN(C)C3 | i | 1
113 | Fc1ccc(-c2csc3ncnc(N4CCc5ccccc5C4)c23)cc1 | i | -0.01
114 | CCCCN(C)CCNC(=O)c1cc2c(-c3ccccc3F)nn(C)c2s1 | i | 0.32
115 | O=C1CCc2cc(S(=O)(=O)Nc3ccccc3F)cc3c2N1CCC3 | i | 0.72
116 | O=C(CNC(=O)C(c1ccccc1)c1ccccc1)N/N=C/c1cccnc1 | i | 0.04
117 | Cc1cccc(/C=N/n2c(-c3cc(-c4ccccc4)n[nH]3)n[nH]c2=S)c1 | i | -3.1
118 | COc1ccc(-n2cc(CNCCc3cnc[nH]3)c(-c3cccc(F)c3)n2)cc1 | i | -0.93
119 | Cc1cc(C)c(S(=O)(=O)N2CCCCC2CCNC(=O)C(=O)NCc2ccco2)c(C)c1 (stereo not given) | i | -0.77
120 | Cc1ccc(C2(CCNS(=O)(=O)c3ccc(C)cc3)CCOC(C(C)C)C2)cc1 (stereo not given) | i | 1.4
121 | Cc1nnc(SCc2nc3ccccc3nc2C)s1 | i | -0.28
122 | CC(C)Cc1nc2oc3c(NCC4CCCO4)ncnc3c2c2c1CCC2 (stereo not given) | i | -0.35
